MbtI inh = MbtI salicylate synthase inhibitors, primary screen, biochemical, fluorescence intensity. purified MbtI enzyme, fluorescence intensity read-out. inhibition, %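 (about 17 µg/mL by stock and volumes)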. 0.89% of 100,000 active. AID 493033, 2011;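 active = above 50% in both replicates, above 80% if mildly self-fluorescent; inactive = the rest, strongly fluorescent compounds included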;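 also: 0% = mean of negative and 100% = mean of positive controls; one replicate is shown; some compounds called inactive have numbers as strong as hits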
PV pol inh = poliovirus RdRp elongation inhibitors, primary screen, biochemical, fluorescence polarization, total intensity; Genome polyprotein (Poliovirus type 1 (strain Mahoney)), P03300; poliovirus polymerase elongation; stronger effect = lower value; % elongation, % (compound at 16.7 µg/mL); 0.66% of 150,000 active; AID 588519, 2011; in the data active = % elongation below about 90%; also: some results filed as inactive read as strong as hits
Target sequence (P03300 1749-2209 limits assumed): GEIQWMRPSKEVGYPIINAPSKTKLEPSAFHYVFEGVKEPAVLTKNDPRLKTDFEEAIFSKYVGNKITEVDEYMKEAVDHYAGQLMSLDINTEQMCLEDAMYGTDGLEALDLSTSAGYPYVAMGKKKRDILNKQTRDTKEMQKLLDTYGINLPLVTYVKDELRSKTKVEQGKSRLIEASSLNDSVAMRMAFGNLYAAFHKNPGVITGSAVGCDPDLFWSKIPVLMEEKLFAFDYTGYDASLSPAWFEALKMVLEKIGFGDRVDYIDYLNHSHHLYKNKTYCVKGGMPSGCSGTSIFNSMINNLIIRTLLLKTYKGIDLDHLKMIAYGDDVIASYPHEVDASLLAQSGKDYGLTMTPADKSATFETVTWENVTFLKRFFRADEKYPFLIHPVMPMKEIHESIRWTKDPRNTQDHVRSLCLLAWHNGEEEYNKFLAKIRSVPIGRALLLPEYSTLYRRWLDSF
MenB inh = M. tuberculosis MenB inhibitors, primary screen, biochemical, absorbance; MenB enzyme assay, absorbance read-out; some hits fall short of the stated cut; inhibition, %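 (about 12 µg/mL by stock and volumes)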; 0.43% of 100,000 active;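 active = mean of two replicates above 30%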;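 also: 0% = no compound and 100% = wells with inactive enzyme; the first replicate is given; strong numbers were not always called active; inactives centre near -10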
Target sequence (P9WNP5 whole entry, looked up): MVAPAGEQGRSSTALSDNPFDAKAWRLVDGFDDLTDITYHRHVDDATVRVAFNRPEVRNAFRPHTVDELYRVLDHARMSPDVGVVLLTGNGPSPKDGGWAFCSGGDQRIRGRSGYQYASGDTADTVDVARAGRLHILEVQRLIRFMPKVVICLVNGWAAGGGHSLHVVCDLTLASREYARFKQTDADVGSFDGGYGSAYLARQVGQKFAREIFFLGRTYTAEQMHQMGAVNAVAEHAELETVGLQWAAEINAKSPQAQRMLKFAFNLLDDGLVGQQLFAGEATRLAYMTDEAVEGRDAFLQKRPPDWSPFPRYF
PV pol inh intensity = second read-out of PV pol inh, no call of its own (marks repeat the call); % elongation; measured here: total intensity read-out; formula for this scale not given here;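 total fluorescence in place of polarization; lower means less elongation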
An asterisk follows results filed as active; nt = not tested or not shown.

Sequence of screens – PV pol inh intensity	MbtI inh	MenB inh	PV pol inh
O=C(NCC(c1ccco1)N1CCCC1)c1ccc(-c2nc3ccccc3s2)s1 (configuration not stated)
 : 110	14	-3	107
O=C(O)Cn1c(=O)oc2cc(S(=O)(=O)N3CCOCC3)ccc21
 : 103	-2	-17	101
N#Cc1oc2ccccc2c1NC(=O)COC(=O)c1ccc(N2C(=O)c3ccccc3C2=O)cc1
 : 106	-4	-5	101
c1ccc2c(CNn3cnnc3)cccc2c1
 : 101	-9	-35	102
Cc1[nH]nc2ncc(C(=O)c3ccccc3O)cc12
 : 102	-1	-21	105
COC(=O)c1ccc(CSc2nc(-c3cccs3)nc3c2c(=O)n(C)c(=O)n3C)o1
 : 107	4	-23	103
CCOC(=O)NC(=S)N1C(C)CCCC1C (configuration not stated)
 : 103	21	3	99
CCCc1cc(NCc2cccnc2)n2c(nc3ccccc32)c1C#N
 : 105	71	-22	103
CCN(C(=O)CCc1ccccc1)C1CCCCC1
 : 94	nt	-24	104
CCOC(=O)C(C)n1ncn2cccc2c1=O (configuration not stated)
 : 108	-1	-7	106
Cc1ccccc1COC(=O)CCCC1=NS(=O)(=O)c2ccccc2N1
 : 97	-12	-27	99
COC(=O)c1c(CSc2nnc(-c3ccco3)o2)nc2ccccc2c1-c1ccccc1
 : 99	21	-1	104
CCC1CCC(c2nnc(-c3ccc(Br)cc3)o2)CC1 (configuration not stated)
 : 103	0	-24	102
CC(C(=O)N1CCCCCC1)(c1ccccc1)c1ccccc1
 : 97	nt	-20	104
CN1CCCc2cc(/C=C3\CCC(C4CCCC4)C3=O)ccc21 (configuration not stated)
 : 108	4	-38	102
CCOC(=O)c1c(CN(C)C)n(C)c2cc(Br)c(OC)cc12
 : 98	nt	2	94
CN(C)c1ccc(-c2nc3cc(NC(=O)c4ccccc4)ccc3o2)cc1
 : 101	12	18	101
Cc1ccc2c(c1)c(=O)c(Br)c(C)n2Cc1ccccc1
 : 101	0	-11	101
NC(=Nc1ccccc1)SC1CC(=O)N(c2ccccc2)C1=O (configuration not stated)
 : 103	9	-16	104
COC(=O)c1cc(Cl)c(N)cc1OC
 : 99	8	10	102

Pulled one by one from above:
Sequence of screens – PV pol inh intensity	MbtI inh	MenB inh	PV pol inh
CN1CCCc2cc(/C=C3\CCC(C4CCCC4)C3=O)ccc21 (configuration not stated)
 : 108	4	-38	102
COC(=O)c1ccc(CSc2nc(-c3cccs3)nc3c2c(=O)n(C)c(=O)n3C)o1
 : 107	4	-23	103
N#Cc1oc2ccccc2c1NC(=O)COC(=O)c1ccc(N2C(=O)c3ccccc3C2=O)cc1
 : 106	-4	-5	101

Full records from above. Order of values: PV pol inh intensity, MbtI inh, MenB inh, PV pol inh
Cc1ccccc1COC(=O)CCCC1=NS(=O)(=O)c2ccccc2N1 as listed: 97, -12, -27, 99
CN(C)c1ccc(-c2nc3cc(NC(=O)c4ccccc4)ccc3o2)cc1 as listed: 101, 12, 18, 101
COC(=O)c1c(CSc2nnc(-c3ccco3)o2)nc2ccccc2c1-c1ccccc1 as listed: 99, 21, -1, 104

Additional compounds follow:
Sequence of screens – PV pol inh intensity	MbtI inh	MenB inh	PV pol inh
O=C1OC(c2ccccc2)=N/C1=C1/OC(=O)c2ccccc21
 : 106	nt	-10	98
Cc1ccc(S(=O)(=O)Nc2cc(C(F)(F)F)ccc2N2CCOCC2)c(C)c1
 : 88	-10	10	94
O=C(NC1CCCCC1)c1ccc(CN2CCOCC2)cc1
 : 104	-13	-47	101
CCn1c(-c2ccc3c(c2)OCCO3)cnc1SCC(=O)c1cc(C)n(-c2ncn[nH]2)c1C
 : 102	-5	-40	107
CCOC(=O)N1CCC(NC(=O)Nc2cc(C)oc2C(F)(F)F)CC1
 : 109	-12	11	105
c1ccc(C2=NN3COc4ccccc4C3C2)cc1 (configuration not stated)
 : 100	-143	-15	100
O=C(O)c1ccc(C#Cc2ccccc2)cc1
 : 105	25	-8	103
CCCN(Cc1ccc(N(CC)CC)cc1)CC1CC1
 : 102	-9	4	99
CN1CCC(N(C)C(C(=O)Nc2ccc(F)cc2)c2ccccc2)CC1 (configuration not stated)
 : 88	8	15	92
Cc1cncc(C(=O)NN)c1
 : 100	-2	-11	102
Cc1cc2cc(CNC(=S)NCCc3ccccc3)ccc2n1C
 : 96	-8	-83	101
CP(=O)(O)C(c1cccc(Cl)c1)C(F)(F)F (configuration not stated)
 : 106	4	3	103
O=C1CSc2ccc(C(=O)N3CCN(S(=O)(=O)/C=C/c4ccccc4)CC3)cc2N1
 : 103	4	-12	100
O=C(CSC(=S)N1CCOCC1)N1CCc2ccccc21
 : 100	0	nt	102
NC(=O)NNC1=Nc2cccc3cccc1c23
 : 108	13	-166	102
C=CCc1cccc2cc(C(=O)O)c(=O)oc12
 : 88	18	-17	101
Cc1c(/C=N/O)sc2ccccc12
 : 107	-8	-2	106
CCOC(=O)N1CCN(C(=O)CSCC(=O)Nc2nc(-c3cccs3)cs2)CC1
 : 103	-9	-11	104
CCC(=O)Oc1ccc(C(=O)CC)cc1OC
 : 97	-3	nt	101
O=C(CCC(=O)c1cccs1)NCC1CCCO1 (configuration not stated)
 : 108	8	7	103
CCCCOc1ccccc1-c1nc(SCC(=O)O)n[nH]1
 : 102	-9	-1	100
Cc1ccc(-n2nc(C)cc2NC(=O)CSc2nnc(C3COc4ccccc4O3)n2C)cc1 (configuration not stated)
 : 104	-12	9	100
CCn1cc(C(=O)NCCCN2CCN(c3cccc(Cl)c3)CC2)c(=O)c2cc(S(=O)(=O)N(C)C)ccc21
 : 103	-6	2	103
Cc1cc2c(n1-c1ccc(Br)cc1)CC(C)(C)CC2=O
 : 103	-4	-24	99
CNc1nc(NCc2ccco2)c2ccccc2n1
 : 103	91	2	101
CCOc1ccc(NC(=O)CN(C2=NC3CS(=O)(=O)CC3S2)c2ccccc2)cc1 (configuration not stated)
 : 98	7	7	102
O=CNCc1nc2ccccc2n1Cc1ccccc1
 : 102	3	-17	102
OCCN1CNC(=S)NC1
 : 102	2	-18	109
O=C(NC1CCCCC1)C1CC1c1ccccc1 (configuration not stated)
 : 101	-5	-17	97
CCN(C(=O)CO)c1c(N)n(Cc2ccccc2)c(=O)n(CC(=O)Nc2ccc(C)c(C)c2)c1=O
 : 108	5	-3	101
c1cc(N2CCCCC2)nnc1N1CCCCC1
 : 100	-14	-29	107
Nc1ccc2c3c(cccc13)C(=O)N(c1ccccc1)C2=O
 : 193	7	-112	83
O=C(Nc1ccccn1)NC12CC3CC(CC(C3)C1)C2
 : 104	1	25	103
Cn1c(=O)c2c(SCc3cccc(C(F)(F)F)c3)nc(-c3ccco3)nc2n(C)c1=O
 : 103	-4	-1	102
CCOc1ccc(C(=O)Nc2cc3[nH]c(=O)[nH]c3cc2C)cc1OCC
 : 103	-24	6	100
CC(C)N(C(=S)NC(=O)C1CC1)c1ccccn1
 : 130	-6	-30	124
CCN1CCN(C(=O)c2cn(-c3ccccc3)nc2-c2cccs2)CC1
 : 98	-4	nt	101
CCOC(=O)c1ccc(NC(=O)CO/N=C/c2ccc3c(c2)OCO3)cc1
 : 101	39	-35	104
O=C(Cc1ccccc1)N1CCC(c2ccccc2)=N1
 : 111	nt	-7	109
CCCCc1ccc(Oc2cc(N3CCOCC3)nc(-c3ccccc3)n2)cc1
 : 101	6	-29	101
COC(=O)c1ccn(COc2ccccc2Cl)n1
 : 95	nt	-7	100
Cc1c(C#N)c(NC(=O)CSc2nc3ccccc3s2)n(CC2CCCO2)c1C (configuration not stated)
 : 104	4	-25	106
CC(C)c1ccc(S(=O)(=O)Nc2cc(SCC(=O)O)c(O)c3ccccc23)cc1
 : 102	66	-4	99
Cc1noc(C)c1COc1cccc(C(=O)OC2CCCCC2=O)c1 (configuration not stated)
 : 100	9	-8	99
CCC(=O)c1ccc(OCC(O)CN(C)Cc2ccccc2OC)cc1 (configuration not stated)
 : 105	-2	8	99
CCOc1ccc(-c2cc(C#N)on2)cc1
 : 98	-1	-63	102
COc1cccc(-c2cc(C(=O)N3CCCCC3C)no2)c1 (configuration not stated)
 : 105	-7	-10	102
Cc1nc(-c2cc(-c3nc(-c4ccc(C(F)(F)F)cc4)no3)no2)cs1
 : 103	0	-7	99
CCN(Cc1ccccc1)C(=O)CCn1ccc(C)n1
 : 102	-12	-1	100
COc1cccc2cc(C(=O)C3=C(O)C(=O)N(CCCN(C)C)C3c3ccncc3)oc12 (configuration not stated)
 : 103	nt	-16	101

Later entries.
Sequence of screens – PV pol inh intensity	MbtI inh	MenB inh	PV pol inh
Cc1ccc(CN2COc3c(cc4c5c(c(=O)oc4c3C)CCC5)C2)cc1
 : 103	-130	19	102
O=C(N/N=C1\CCCc2ccccc21)c1ccc(O)cc1
 : 107	-3	-40	104
COC(=O)c1ccccc1NS(=O)(=O)c1ccccc1
 : 101	-8	-6	101
CC(=O)Nc1cc(C(=O)c2ccc(Cl)cc2)nn(-c2ccccc2)c1=O
 : 114	-5	16	106
CCCCc1cc(=O)oc2cc(C)c3c(C)c(C)oc3c12
 : 100	-19	-4	102
CC1CCc2sc3ncnc(NCCCN(C)C)c3c2C1 (configuration not stated)
 : 103	22	5	103
OC(C#CCN1CCOCC1)(c1ccccc1)c1ccccc1
 : 105	-23	-15	103
COc1ccc(Nc2nnc(SCc3nc4ccc(Cl)cc4n3CCO)s2)cc1
 : 103	5	-3	100
CCCN1CCC(N2CCCC(C(=O)N(C)CCc3ccc(OC)c(OC)c3)C2)CC1 (configuration not stated)
 : 99	3	12	101
CCOC(=O)c1ccc2c(c1)nc(SCC(=O)Nc1ccccc1F)n2CC
 : 105	-23	-2	104
CSc1ccc(/C=C2\C(=O)N(C)N=C2C)s1
 : 95	31	-280	98
Cn1c(=NC(=O)C2COc3ccccc3O2)sc2ccccc21 (configuration not stated)
 : 112	19	2	105
COc1ccc(CCNC(N)=S)cc1OC
 : 99	-5	-19	105
NCc1ccc(-c2ccc(Cl)cc2)o1
 : 114	-24	-15	107
CC(=O)N1C(O)CCN1c1ccccc1 (configuration not stated)
 : 103	6	-16	104
CCCCCCC1CCC/C1=N\NC(N)=O (configuration not stated)
 : 104	-6	-27	98
CC1(C)C(=O)Nc2ccccc2N1C(=O)Cn1nc(C(=O)O)c2ccccc2c1=O
 : 113	-13	-15	104
O=C1CC(C(=O)Nc2nncs2)C(c2ccccc2)O1 (configuration not stated)
 : 98	7	7	103
O=C(NCC1CCCO1)c1ccc(S(=O)(=O)N2CCCCC2)cc1 (configuration not stated)
 : 103	-12	-26	103
O=C(O)CC1=C(c2cccs2)N2CCN=C2S1
 : nt	2	-16	nt
O=C(Cn1cnc2ccc(Cl)cc2c1=O)N(c1ccccc1)C1CCS(=O)(=O)C1 (configuration not stated)
 : 109	-8	-23	107
CN(C)S(=O)(=O)c1cccc(C(=O)OCC(=O)c2ccc[nH]2)c1
 : 112	-11	-14	109
CCN(CC)C(=O)c1csc(Nc2ccc(OC)cc2)n1
 : 107	-9	-11	104
O=C(O)c1ccc(Nc2ncnc3c2cnn3Cc2ccccc2)cc1
 : 94	24	-17	96
CCOC(=O)c1ccc(-c2c(C)oc3cc(OC)c(CC)cc3c2=O)o1
 : 98	9	-25	101
CC(Oc1ccccc1-c1ccccc1)c1n[nH]c(=S)n1-c1ccccc1 (configuration not stated)
 : 99	19	-21	105
CCCCN1C(=O)c2ccc(C(=O)OCc3csc(C)n3)cc2C1=O
 : 107	-17	-36	103
CCOC(=O)c1c(C)[nH]c(C)c1C(=O)CN1C(=O)NC(CC(C)C)C1=O (configuration not stated)
 : 103	0	-13	107
COc1ccccc1CNC(=O)C1CCCN1c1nn2c(=O)cc(C)nc2s1 (configuration not stated)
 : 102	-2	-13	102
Cc1ccc(C)n1-c1cccnc1
 : 103	8	nt	100
CN(CC(=O)NC1CCCc2ccccc21)c1nnc(N2CCCC2=O)s1 (configuration not stated)
 : 103	-24	-2	103
Cc1ccc(S(=O)(=O)N2CCC(N(C)CCC(C)C)CC2)cc1
 : 102	-4	-7	101
Cn1cccc1/C=C/C(=O)Oc1ccc2ccc(=O)oc2c1
 : 92	106	-52	97
Cc1ccc(-c2ccc(=O)[nH]n2)cc1S(=O)(=O)N1CCOCC1
 : 101	-4	5	105
CC(Sc1nc2ccccc2c(=O)n1C)C(=O)NC(N)=O (configuration not stated)
 : 99	12	-3	98
COCc1nnc(NC(=O)/C=C/c2cc(OC)c(OC)c(OC)c2)s1
 : 90	86	-8	93
Cc1ccc(CNC(=O)CCc2c(C)nc3c4cccnc4nn3c2C)cc1
 : 97	24	-13	102
CCC(=O)N1CCc2cc(S(=O)(=O)CCC(=O)NCc3cccs3)ccc21
 : 105	-3	-36	102
Cc1cc2ccccc2n1CC(=O)Nc1cccc(C(=O)NC2CC2)c1
 : 105	-6	-14	102
COc1ccc(CNC(=O)c2ccc(N3CCCS3(=O)=O)cc2)cc1
 : 102	-7	-12	103
Cc1nn(Cc2ccc(F)cc2)c2sc(C(=O)Nc3ccc(N4CCOCC4)cc3N3CCOCC3)cc12
 : 100	11	-3	103
CC(=O)Nc1ccc(CN2CCN(C/C=C/c3ccccc3)CC2)cc1
 : 103	-23	9	97
N#C/C=C1\n2c(nc3ccccc32)OC12CCCCC2
 : 101	6	18	99
CCCCN(C(=O)c1cn(-c2ccc(OC)cc2)c(=O)c2ccccc12)C1CCN(C(C)=O)CC1
 : 104	5	10	101
COC(OC)c1ccc(C#N)c(SCc2ccc(C)cc2)n1
 : 110	-10	-5	108
Cc1ccc(CN(Cc2ccccc2)C(=S)NCC(=O)N2CCC3(CC2)OCCO3)o1
 : 97	5	-28	100
Cc1cc(C)c(C#N)c(SC2CCCCC2=O)n1 (configuration not stated)
 : 105	-3	2	101
